GIV-Gai inh – GIV-Galpha-i interaction inhibition. percent of control (FP), % (concentration not given with the values). P08753. Galpha-i3/FITC-GIV peptide fluorescence polarization, 90 min; hits give low values; scaled: aluminum fluoride 0%, vehicle 100%. 0.42% of 210,000 active;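 active = replicate mean at 85% of control or lower, very high polarization wells dropped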;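 also: wells of about 15 µL received 100 nL stock; the first replicate is given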
Target sequence (P08753 whole entry, looked up): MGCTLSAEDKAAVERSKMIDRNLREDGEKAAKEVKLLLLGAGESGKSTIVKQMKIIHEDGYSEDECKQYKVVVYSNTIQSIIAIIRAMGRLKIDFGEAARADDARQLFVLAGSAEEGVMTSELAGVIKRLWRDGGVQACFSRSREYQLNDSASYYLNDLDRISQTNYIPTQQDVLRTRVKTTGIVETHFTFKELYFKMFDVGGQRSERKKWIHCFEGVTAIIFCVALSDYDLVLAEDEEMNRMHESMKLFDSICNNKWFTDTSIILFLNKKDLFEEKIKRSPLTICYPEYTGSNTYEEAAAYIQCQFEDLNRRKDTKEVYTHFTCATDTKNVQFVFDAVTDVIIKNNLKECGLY
HCMV UL50-53 inh – disrupts HCMV UL50-UL53 complex binding; HTRF UL50-UL53 interaction, normalized percent inhibition; inhibition, % (test concentration not listed); 0.15% of 190,000 active; AID 1918969;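 active = both replicates at 50% or more, plus weaker picks with an unusually low signal ratio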;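 also: stock transfer was 100 nL into about 20 µL; 0% = negative control wells and 100% = wells with untagged competitor protein; inactives centre near -12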
Sa growth 42C – blocks Staphylococcus aureus growth; S. aureus RN4220 growth, OD600, 20 h, 42 °C; hits give low values; relative growth, % (test concentration not listed); AID 720641; 0.53% of 170,000 active;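 active = growth at 42 °C up to 50% and 20 or more points under that at 30 °C, or under 10% at both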;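 also: 300 nL library stock went into each well; scaled to the means of positive and negative controls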
Sa growth 42C second temp – recorded beside Sa growth 42C, whose call it bears; relative growth, %; measured here: growth at 30 °C;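 optical density after 20 h as mean of two plates; 100% = untreated growth and lower means inhibition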
The depositor's hits bear a star; x = no result given; & = joins results of further samples.

Screens by letter: A = GIV-Gai inh; B = HCMV UL50-53 inh; C = Sa growth 42C; D = Sa growth 42C second temp
> CCOc1ccc(Nc2nc3ccccc3c3nnc(CC)n23)cc1
  A = 104; B = -4; C = 109; D = 92
> O=C1C2C(c3ccccc3)C=CC(c3ccccc3)C2C(=O)N1c1cccc(O)c1 (stereo unspecified)
  A = 100; B = -15; C = 115; D = 90
> Cc1ccc(-c2noc3c(NC4CC4)ncnc23)cc1
  A = 108; B = -21; C = x; D = x
> CC1CCCCN1S(=O)(=O)c1ccc(S(=O)(=O)N2CCN(c3ncccn3)CC2)cc1 (stereo unspecified)
  A = 102; B = -10; C = 102; D = 77
> CCOC(=O)c1cnc2c(ccc3ccccc32)c1NCc1cccnc1
  A = 102; B = -18; C = 100; D = 83
> COc1ccc(C2c3[nH]c4ccccc4c3CCN2C(=O)CCC2CCCC2)cc1 (stereo unspecified)
  A = 96; B = x; C = 110; D = 87
> CCOC(=O)N1CCC(NC(=O)c2cccnc2SC)CC1
  A = 104; B = 9; C = 89; D = 86
> CCOc1ccc(N(C(=O)c2ccc(OC)cc2)S(=O)(=O)c2ccc3c(c2)n(C)c(=O)n3C)cc1
  A = 96; B = -11; C = 95; D = 90
> c1ccc(-c2csc3ncn4cnnc4c23)cc1
  A = 101; B = x; C = 97; D = 90
> CN(CCC#N)C(=O)c1ccc2c(c1)N(Cc1ccc(F)cc1)C(=O)c1ccccc1S2(=O)=O
  A = 104; B = x; C = 121; D = 96
> O=C(CCSCc1ccccc1Cl)N1CCN(c2ccc(F)cc2)CC1
  A = 97; B = x; C = 87; D = 73
> CC(C)Oc1ccc(CNC(=O)Cn2ncn3nc(-c4cccs4)cc3c2=O)cc1
  A = 101; B = -13; C = 86; D = 85
> COC(=O)c1ccccc1NC(=O)C1CCCN(c2nnc(C)c3c(C)n(-c4ccccc4)nc23)C1 (stereo unspecified)
  A = 110; B = x; C = 114; D = 91
> COc1cc(/C=C/C(=O)Nn2c(-c3cccs3)nc3ccccc3c2=O)cc(OC)c1OC
  A = 102; B = -40; C = x; D = x
> Cc1ccc2oc(=O)c3cc(C(=O)NCCN4CCCCC4C)sc3c2c1 (stereo unspecified)
  A = 119; B = x; C = 104; D = 84
> Cc1ccccc1-c1nn2c(C)nnc2s1
  A = 105; B = -14; C = x; D = x
> O=C(NCc1ccc2c(c1)OCO2)Nc1ccc2ccccc2c1
  A = 107; B = -2; C = 97; D = 98
> COc1ccc(-c2cn3nc(N4CCCC(C(=O)Nc5ccccc5OC)C4)sc3n2)cc1 (stereo unspecified)
  A = 110; B = x; C = 147; D = 75
> CN1CCc2c(sc3c2CN(C(=O)Nc2ccc(Cl)cc2)C(c2ccc(F)cc2)c2cccn2-3)C1 (stereo unspecified)
  A = 106; B = -8; C = x; D = x
> CNC(=S)NNS(=O)(=O)c1ccc(Cl)cc1
  A = 97; B = -39; C = 92; D = 80
> CCn1c(O)c(/C=C2/C=CC=N2)c(=O)[nH]c1=S
  A = 97; B = x; C = 104; D = 84
> Cc1onc(-c2ccccc2)c1C(=O)NCCN(C)C
  A = 110; B = -7; C = 94; D = 88
> S=C(c1cccc(Br)c1)N1CCNCC1
  A = 109; B = -29; C = 107; D = 91
> NC(=O)NC(=O)CSc1nncn1-c1ccccc1
  A = x; B = -18; C = 67; D = 87
> Cc1ccc(-c2csc(C(C#N)=C3CCCC3)n2)cc1
  A = 103; B = -12; C = 101; D = 84
> CCOC(=O)CNC(=O)N1CCC(n2nnc3ccccc3c2=O)CC1
  A = 105; B = -46; C = x; D = x
> O=C(Cc1cccc2ccccc12)Nc1ccc(CCC(=O)N2CCCC2)cc1
  A = x; B = -18; C = 89; D = 74
> Cn1cc(S(=O)(=O)N2CCCC2)cc1C(=O)N1CCn2c1nc1ccccc12
  A = 105; B = 1; C = x; D = x
> O=C(c1cccc(-n2cnnn2)c1)N1CCOCC1
  A = 103; B = -3; C = 102; D = 104
> Cc1ccccc1-c1nc2scc(CCNC(=O)CN3C(=O)c4ccccc4C3=O)n2n1
  A = 100; B = -17; C = x; D = x
> CC1CC(C)CN(C(=O)c2cc3ccccc3oc2=O)C1 (stereo unspecified)
  A = x; B = -22; C = 98; D = 95
> CC(C)c1ccc(S(=O)(=O)N2CCN(S(=O)(=O)c3ccc(C(C)C)cc3)C(C)C2)cc1 (stereo unspecified)
  A = x; B = 3; C = 97; D = 96
> O=C(Cn1ncc2c3ccccc3n(Cc3ccccc3F)c2c1=O)NC1CCCCCC1
  A = 101; B = -24; C = 103; D = 89
> CCOC(=O)C1=C(Cn2ncc(Cl)c(Cl)c2=O)NC(=O)NC1C (stereo unspecified)
  A = x; B = -89; C = 90; D = 78
> CC(C)Oc1ccc(CNC(=O)c2ccc3nc(Cc4ccccc4)oc3c2)cc1
  A = 100; B = x; C = 94; D = 86
> COC(=O)c1cc2oc(C)cc2n1Cc1ccc(C)cc1
  A = 105; B = x; C = 101; D = 90
> Cn1c(O)c(C=NCC2(C)CC(O)CC(C)(C)C2)c(=O)n(C)c1=S (stereo unspecified)
  A = 123; B = -7; C = 103; D = 89
> N#CCc1ccc(Oc2ccc(C(F)(F)F)cn2)cc1
  A = 111; B = 3; C = 103; D = 104
> Fc1nc(Nc2ccccc2)c2c(c1Cl)Oc1ccccc1O2
  A = 107; B = x; C = 94; D = 72
> Cc1cccc(-c2noc(-c3ccc(OC(F)(F)F)cc3)n2)c1
  A = 106; B = 5; C = 113; D = 100
> C=CCn1c(=O)c(C(=O)Nc2cccc(C)c2)c(O)c2ccccc21
  A = 107; B = -3; C = x; D = x
> CSc1ncc(C(=O)NC(C)c2ccccc2)c(C)n1 (stereo unspecified)
  A = 120; B = -29; C = 95; D = 88
> COc1ccc(S(=O)(=O)N2CCN(c3ccccc3)CC2)cc1-c1noc(C)n1
  A = 97&106; B = 3&-19; C = 76; D = 93
> CCCNC(=O)c1c(N)n(-c2ccccc2)c2nc3ccccc3nc12
  A = 104; B = -20; C = 110; D = 81
> CCOC(=O)c1sc2ccc(S(=O)(=O)N3CCCCC3)cc2c1N
  A = 103; B = 1; C = 97; D = 82
> O=C1CSC(c2cccnc2)N1Cc1cccnc1 (stereo unspecified)
  A = 100; B = -29; C = 93; D = 89
> COc1cccc(-c2noc(CSc3ccc(-c4ccccc4F)nn3)n2)c1
  A = 105; B = -14; C = x; D = x
> CCOC(=O)C1CCN(C(=O)CCc2ccccc2)CC1
  A = 98; B = 0; C = 108; D = 96
> COc1ccc(CN2COc3ccc4c(-c5ccccc5)cc(=O)oc4c3C2)cc1OC
  A = 100; B = -68; C = 95; D = 72
> CC(C)C(=O)Nc1cccc(-c2nc3ccccc3o2)c1
  A = 149; B = 21; C = 100; D = 100

Next entries follow.
Screens by letter: A = GIV-Gai inh; B = HCMV UL50-53 inh; C = Sa growth 42C; D = Sa growth 42C second temp
> CC1CCCC(C)N1Cn1nc2c(Cl)cc(Cl)cn2c1=S (stereo unspecified)
  A = x; B = -75; C = 91; D = 72
> CSCCNC(=O)c1ccccc1N
  A = 105; B = -32; C = 93; D = 81
> Cc1nn(CC(=O)NC2CCN(Cc3ccccc3)CC2)c(=O)c2noc(C)c12
  A = 100; B = -2; C = x; D = x
> Cc1ccc(C2=Nc3ccccc3NC(c3ccncc3)=N2)cc1
  A = 101; B = -23; C = 92; D = 84
> Cc1ccc(-c2cc(C(=O)NCc3cn(C)nc3C)c3cc(Br)ccc3n2)cc1
  A = 101; B = x; C = 114; D = 73
> COc1ccc(S(=O)(=O)N2CCc3cc4cc(C)ccc4nc32)cc1OC
  A = 105; B = -2; C = x; D = x
> N#CC1=C(N)SC(N)=C(C#N)C1c1cccc2ccccc12
  A = -36*; B = -48; C = 75; D = 51
> COCCn1c(=O)[nH]c2cc(C(=O)NCc3ccccc3)ccc2c1=O
  A = 106; B = -6; C = 105; D = 86
> CN1C(c2ccccc2)CC(C)(O)CC1c1ccccc1 (stereo unspecified)
  A = 110; B = 9; C = 102; D = 113
> O=C(NC1CCCCC1)N1CCCC1c1cccc(F)c1 (stereo unspecified)
  A = 100; B = -28; C = x; D = x

GIV-Gai inh: hit marks shown above
Molecule	GIV-Gai inh	Sa growth 42C	Sa growth 42C second temp
N#CC1=C(N)SC(N)=C(C#N)C1c1cccc2ccccc12	-36*	75	51

Exported tab-delimited: part of the list above.
compound	GIV-Gai inh	HCMV UL50-53 inh	Sa growth 42C	Sa growth 42C second temp
C=CCn1c(=O)c(C(=O)Nc2cccc(C)c2)c(O)c2ccccc21	107	-3	x	x
CSc1ncc(C(=O)NC(C)c2ccccc2)c(C)n1 (stereo unspecified)	120	-29	95	88
COc1ccc(S(=O)(=O)N2CCN(c3ccccc3)CC2)cc1-c1noc(C)n1	97&106	3&-19	76	93
CCCNC(=O)c1c(N)n(-c2ccccc2)c2nc3ccccc3nc12	104	-20	110	81
CCOC(=O)c1sc2ccc(S(=O)(=O)N3CCCCC3)cc2c1N	103	1	97	82
O=C1CSC(c2cccnc2)N1Cc1cccnc1 (stereo unspecified)	100	-29	93	89
COc1cccc(-c2noc(CSc3ccc(-c4ccccc4F)nn3)n2)c1	105	-14	x	x
CCOC(=O)C1CCN(C(=O)CCc2ccccc2)CC1	98	0	108	96
COc1ccc(CN2COc3ccc4c(-c5ccccc5)cc(=O)oc4c3C2)cc1OC	100	-68	95	72
CC(C)C(=O)Nc1cccc(-c2nc3ccccc3o2)c1	149	21	100	100
CC1CCCC(C)N1Cn1nc2c(Cl)cc(Cl)cn2c1=S (stereo unspecified)	x	-75	91	72
CSCCNC(=O)c1ccccc1N	105	-32	93	81
Cc1nn(CC(=O)NC2CCN(Cc3ccccc3)CC2)c(=O)c2noc(C)c12	100	-2	x	x
Cc1ccc(C2=Nc3ccccc3NC(c3ccncc3)=N2)cc1	101	-23	92	84
Cc1ccc(-c2cc(C(=O)NCc3cn(C)nc3C)c3cc(Br)ccc3n2)cc1	101	x	114	73
COc1ccc(S(=O)(=O)N2CCc3cc4cc(C)ccc4nc32)cc1OC	105	-2	x	x
N#CC1=C(N)SC(N)=C(C#N)C1c1cccc2ccccc12	-36*	-48	75	51
COCCn1c(=O)[nH]c2cc(C(=O)NCc3ccccc3)ccc2c1=O	106	-6	105	86
CN1C(c2ccccc2)CC(C)(O)CC1c1ccccc1 (stereo unspecified)	110	9	102	113

(further entries)
Screens by letter: A = GIV-Gai inh; B = HCMV UL50-53 inh; C = Sa growth 42C; D = Sa growth 42C second temp
> CCOc1ccc(NC(=O)C2CCCN(c3nnc(-n4c(C)ccc4C)s3)C2)cc1 (stereo unspecified)
  A = 104; B = -11; C = 102; D = 86
> COc1cccc(Nc2cc(C)ncn2)c1
  A = 113; B = -11; C = x; D = x
> CCCn1nc(C(=O)OCc2cccc(S(=O)(=O)N(C)C)c2)c2ccccc2c1=O
  A = x; B = -4; C = 104; D = 95
> Cc1cccc(C2CCCN2S(C)(=O)=O)c1 (stereo unspecified)
  A = 106; B = -30; C = x; D = x
> COc1ccc(CN2CCN(Cc3ccco3)CC2)c(OC)c1OC
  A = 100; B = 1; C = 91; D = 114
> CC1CCC(C(C)C)C(OC(=O)CSc2cccc[n+]2[O-])C1 (stereo unspecified)
  A = x; B = -27; C = 97; D = 78
> COCCCn1c(SCc2ccc(Cl)cc2)nc2c(-c3ccccc3)cn(C)c2c1=O
  A = 101; B = -14; C = x; D = x
> COc1ccc(-c2nnc(SCN3C(=O)c4ccccc4C3=O)n2C(C)C)cc1
  A = x; B = -20; C = 94; D = 86
> Cc1cccc(S(=O)(=O)c2cn(Cc3ccc(F)cc3)c3cc(N4CCCCC4)c(F)cc3c2=O)c1
  A = 106; B = x; C = 115; D = 100
> COc1ccc(-c2noc(N3CCCCCC3)n2)cc1
  A = 107; B = x; C = 109; D = 93
> COC(=O)c1ccccc1Oc1c(F)c(F)nc(N2CCOCC2)c1F
  A = 102; B = x; C = 110; D = 97
> Cc1nn(-c2ccccc2)c(N2CCCCC2)c1C=C(C#N)C#N
  A = x; B = -10; C = 84; D = 84
> CCOc1ccc2nc(NC(=O)c3cccc(OC)c3)sc2c1
  A = x; B = -36; C = 73; D = 58
> CCn1c(C(=O)O)c(CC(=O)Nc2cccc(Cl)c2)c2ccccc21
  A = 92; B = -2; C = x; D = x
> O=C(Nc1ccc(Br)cc1)c1cnn(-c2ccccc2)c1
  A = 94; B = 5; C = x; D = x
> CCOC(=O)c1c(NC(=O)CSc2nc3ccccc3[nH]2)sc2c1CCN(C)C2
  A = 117; B = -26; C = x; D = x
> COc1cc(NC(=O)/C(=C/c2ccco2)NC(=O)c2ccc(C)c(C)c2)cc(OC)c1OC
  A = 99; B = 0; C = 109; D = 107
> CC(NC(=O)CSc1nc(-c2cccc(Cl)c2)nc2cc(=O)[nH]n12)c1nc2ccccc2n1C (stereo unspecified)
  A = 98; B = x; C = 97; D = 96
> CC(=O)N1CCCc2cc(S(=O)(=O)N3CCC(C(=O)NCCC(C)C)CC3)ccc21
  A = 101; B = x; C = 92; D = 87

Source: PubChem BioAssay (ICCB-Longwood Screening Facility, Harvard Medical School)
